Assay outcomes deposited in PubChem BioAssay by several laboratories.
Beta apoptosis = blocks beta cell apoptosis; 300,000 compounds, 0.8% hits; AID 435005; protection from apoptosis, % (concentration not given with the values); INS-1E cytokine-induced death, ATP luminescence, 48 h; percent of positive-control rescue, neutral wells zero;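 active = all replicates at 75% or more, or half of them and the mean; inconclusive = half reach 75% but not the mean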;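 also: 0% = cytokine-treated negative control wells and 100% = positive control rescue; higher means more ATP so stronger rescue from cytokine killing; wells of about 40 µL received 100 nL stock; the first replicate is given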
RanGTP-Imp inh = inhibitors of RanGTP-importin-beta interaction, primary screen, biochemical, FRET, CFP-Ran, YFP-importin-beta, homogeneous. cell-free CFP-Ran/YFP-importin-beta FRET ratio. inhibition, % (no concentration beside the values). 300,000 compounds, 1.1% hits. AID 2216;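 active = most replicates above 15%; inconclusive = exactly half above 15%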;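 also: 0% = DMSO wells and 100% = Ran loaded with GDP instead of GTP; wells of about 40 µL received 100 nL stock; the first replicate is given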
AF4-AF9 inh = inhibitors of human MLL-AF4/AF9 interaction; AlphaScreen, biotin-AF4 peptide binding to FLAG-AF9; AID 651704; P42568; inhibition, % at 10 µM; 350,000 compounds, 0.47% hits;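 active = every replicate reaching a set inhibition limit, whatever the replicate mean, cut at about 25% in these data; inconclusive = mean inhibition reaches that limit but some replicates miss it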;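 also: 0% = plate neutral control median and 100% = total signal loss; the record names both 10 and 1 µM as test concentration; the first replicate is given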
Target sequence (P42568 whole entry, looked up): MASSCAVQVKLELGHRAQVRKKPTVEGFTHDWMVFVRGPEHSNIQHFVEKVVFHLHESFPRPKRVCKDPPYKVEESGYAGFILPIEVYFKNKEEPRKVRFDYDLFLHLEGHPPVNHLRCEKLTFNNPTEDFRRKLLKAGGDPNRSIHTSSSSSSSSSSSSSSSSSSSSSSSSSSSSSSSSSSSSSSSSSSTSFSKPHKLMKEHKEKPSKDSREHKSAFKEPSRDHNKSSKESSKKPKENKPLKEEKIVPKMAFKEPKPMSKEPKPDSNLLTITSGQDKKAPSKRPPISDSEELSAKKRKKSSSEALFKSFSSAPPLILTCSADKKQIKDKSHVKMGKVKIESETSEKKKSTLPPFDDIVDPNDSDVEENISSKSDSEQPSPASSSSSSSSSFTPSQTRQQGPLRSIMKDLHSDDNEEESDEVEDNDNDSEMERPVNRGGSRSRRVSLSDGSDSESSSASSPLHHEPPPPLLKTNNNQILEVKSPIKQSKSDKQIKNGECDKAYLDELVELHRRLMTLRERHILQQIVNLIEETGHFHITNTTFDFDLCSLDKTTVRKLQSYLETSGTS
Vif TR-FRET = HIV-1 Vif–A3G interaction blockers – biochemical, TR-FRET, GST-Vif 1-94, biotin-A3G peptide, dose response retest, primary screen (AID 1117319); TR-FRET GST-Vif / biotin-A3G peptide binding; higher % means a stronger effect; test concentration not given here; strong numbers were not always called active; one-dose inhibition, %; IC50 in µM for titrated hits; 260,000 compounds, 0.57% hits;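 active = above the screen mean plus three standard deviations and confirmed in dose response; inconclusive = results disagree or hit not tested in dose response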;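 also: Vif residues 1-94 fused to GST binding biotinylated APOBEC3G peptide 110-148; 0% = full assay without inhibitor and 100% = GST in place of GST-Vif; retest series ran down from 100 µM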
Ecoli rRNA inh = selective bacterial rRNA inhibition in E. coli | GFP signal change (wild-type ribosome), % (test concentration not listed) | 350,000 compounds, 1.6% hits | E. coli WT GFP vs humanized-ribosome RFP mutants, fluorescence, 24 h; stronger effect = lower value; DMSO median 0, no signal -100;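 active = significant combined selectivity score with lowered wild-type GFP, culture density cut under 30%, mutant RFP and density less affected; inactive = any of these conditions unmet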; also: one replicate is shown; some compounds called inactive have numbers as strong as hits
Bfl-1 A1 inh = inhibitors of the anti-apoptotic protein A1, read as caspase activation; MEF A1-2A-BIM cells, Caspase-Glo 3/7 luminescence, 3 h; percent of clofoctol response, vehicle zero; caspase activation, % (test concentration not listed); 330,000 compounds, 0.066% hits;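 active = over half of replicate activation scores above 10%, or exactly half above 10 with the replicate mean above 10; inconclusive = replicate mean below 10 yet half the replicates above 10; inactive = over half of replicates below 10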;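 also: wells of about 30 µL received 50 nL stock; many hits fall short of the cut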
Calb FLC = C. albicans growth modulation with fluconazole; growth inhibition, % (concentration not given with the values); AID 1979; C. albicans CaCi-2 (fluconazole-resistant clinical isolate) + fluconazole, Alamar Blue growth, 48 h; 300,000 compounds, 0.57% hits;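 active = most replicates above 75%; inconclusive = exactly half above 75%; inactive = most below 75%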;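 also: all wells also contain fluconazole at 8 µg/ml as a sub-toxic cotreatment; 0% = median of DMSO wells and 100% = median of geldanamycin control wells; wells of about 8 µL received 7.5 nL stock; the first replicate is given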
T cruzi repl = blocks replication of Trypanosoma cruzi. T. cruzi beta-gal in NIH3T3, luminescence, 90 h. inhibition, % (concentration not given with the values). 300,000 compounds, 1.4% hits;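 active = mean inhibition across valid replicates above about 55%, limit read from the data; inconclusive = mean below that limit but half or more replicates reach it; inactive = mean below it, under half of replicates reach it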;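 also: signal also drops with host cell toxicity which is not excluded here; 0% = plate median of DMSO wells and 100% = zero luminescence signal; higher percent means less beta-gal luminescence so fewer parasites; stock transfer was 50 nL into about 50 µL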
Ecoli rRNA inh OD600 = recorded beside Ecoli rRNA inh, whose call it bears; OD600 change, %; measured here: OD600 growth;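 optical density of the mix in the first replicate; 0 = DMSO median and -100 = no signal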
Ecoli rRNA inh RFP = also measured in Ecoli rRNA inh; calls as there; RFP signal change, %; measured here: RFP humanized mutant strains;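 first replicate; 0 = DMSO median and -100 = no signal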
* = called active by the depositor; ? = inconclusive; nt = no result given. A portion of the library; rates above refer to the full screens.

SMILES	Beta apoptosis	RanGTP-Imp inh	AF4-AF9 inh	Vif TR-FRET	Ecoli rRNA inh	Ecoli rRNA inh OD600	Ecoli rRNA inh RFP	Bfl-1 A1 inh	Calb FLC	T cruzi repl
Cc1ccc2cc(CN(C(=O)c3ccncc3)C(C)C)c(=O)[nH]c2c1	-2	4.7	nt	0%	nt	nt	nt	1.4	?	-12
CCN1CCN(c2ccc(S(=O)(=O)N3CCCCC3)cc2NC(=O)/C=C/c2ccc(F)cc2)CC1	2	nt	16	-11%	-2	-5	20	0.8	0	47
COc1ccc(Cc2nnc(NC(=O)Cn3cnc4c3c(=O)n(C)c(=O)n4C)s2)cc1	-3	2.4	nt	5%	nt	nt	nt	-2.1	1	-5
CCOc1ccc(NC(=O)N(C2CCCC2)C2CCN(C(C)=O)CC2)cc1	1	0.5	-0.7	-11%	12	-1	-4.3	-0.2	-15	1
O=c1c2c(nc3cc(-c4ccc(F)cc4)[nH]n13)CCCC2	-6	2.2	nt	3%	nt	nt	nt	-4.3	-5	15
O=c1c2cn[nH]c2nc(SCc2c(F)cccc2F)n1-c1ccc(Cl)cc1	-1	0.3	-2.0	-9%	19	3	0.1	-0.5	?	41
COCc1c(CCl)cnc(C)c1O	-7	0.8	-1.9	nt	12	8	5.0	1.3	6	-12
Cc1cc(F)ccc1S(=O)(=O)N(C(=O)c1ccncc1)c1ccc(OC(=O)c2ccncc2)cc1	-9	-2.0	-2.2	4%	8	-5	5.1	-0.9	-7	-20
S=C(N/N=C1\CCc2ccccc21)NC1CCCCC1	-1	0.3	3.1	-7%	-13	-24	1.9	-0.7	-22	5
O=C(Nc1ccc(S(=O)(=O)N2CCCC2)cc1)c1cccnc1Cl	-1	2.6	12	-2%	2	7	-0.4	-0.3	-5	-6
C=C(C)COc1ccc(-c2ncncc2-c2ccc(Cl)cc2)c(O)c1	13	4.2	3.5	-3%	-4	-2	-2.4	0.6	-1	44
CCC(=O)NNc1cc(=O)c2c(=O)n(C)c(=O)n(C)c2[nH]1	-2	6.2	nt	-2%	nt	nt	nt	0.3	-4	-3
O=C1c2ccccc2C(Nc2ccc(-c3nc4ccccc4[nH]3)cc2)N1Cc1ccco1 (stereo not given)	6	0.5	-1.0	0%	-4	-6	-0.4	-0.8	-12	19
COc1ccc(OC(C)C(=O)N2CCOCC2)cc1 (stereo not given)	-5	1.7	nt	-1%	nt	nt	nt	2.7	-11	2
COc1cc(C(=O)COC(=O)c2ccc([N+](=O)[O-])o2)cc(OC)c1OC	-6	nt	-2.6	-2%	-6	13	-5.3	2.6	nt	nt
CCCC(=O)Nc1ccccc1-c1nnn(CC(=O)Nc2ccc(OCC)cc2)n1	5	-3.4	nt	?	nt	nt	nt	0.4	-5	-3
COc1ccc([C@H]2C(C(=O)O)=C[C@@H](C(C)(C)C)N2S(=O)(=O)c2ccccc2)cc1	-1	nt	-3.1	-5%	5	4	-0.2	-0.7	nt	nt
COc1ccc(C(=O)NNC(=S)NC(=O)c2ccc(OC)cc2)cc1	nt	3.1	-4.3	-11%	-51	-71	-13	0.9	68	-28
COc1cc2c(cc1OC)C(Cc1ccc(O)cc1)N(C)CC2 (stereo not given)	0	0.3	-2.4	31%	2	8	-1.4	-0.6	-12	-10
COc1ccc2[nH]c(C)c(CCNC(=S)Nc3ccccc3C)c2c1	nt	?	2.1	0%	-6	-7	10	0.5	-17	1
Cc1ccc(C)c(S(=O)(=O)N(C)C2(C)CCS(=O)(=O)C2)c1 (stereo not given)	0	-3.5	0.0	nt	11	-1	-0.8	0.1	-7	-15
CCOc1ccc(NC(=O)CS(=O)CC(=O)N(CC(=O)NC(C)(C)C)C2CCCC2)cc1 (stereo not given)	-2	1.3	14	nt	2	6	-0.6	-0.8	20	1
Cc1ccc(NC(=O)C(=O)NCCCN2CCOCC2)c(C)c1	-4	-0.2	-7.3	nt	3	2	-1.0	1.9	-1	-3
O=C(CCNC(=O)c1ccccc1Cl)Nc1ccccc1N1CCCC1	2	4.3	-3.1	-7%	2	-1	3.1	1.2	-4	1
CCOC(=O)CCCNC(=O)CSc1nc2ccc(OCC)cc2[nH]1	1	-2.1	-1.8	-9%	5	-12	-2.8	-0.7	22	-7
O=C(COC(=O)CCc1nc2ccccc2c(=O)[nH]1)Nc1ccccc1	5	nt	-3.4	0%	7	4	-1.7	0.6	nt	nt
O=C(COC(=O)/C=C/c1ccc2c(c1)OCO2)NCc1ccccc1	-12	nt	-0.3	-9%	0	-7	2.3	0.4	nt	nt
N#Cc1nc(-c2cccs2)oc1N1CCN(c2ccccc2)CC1	-12	2.7	nt	17%	nt	nt	nt	-1.3	5	2
COc1ccc(NC(=O)CCN2CCC(C)CC2)cc1	-1	1.6	nt	-1%	nt	nt	nt	-0.1	-1	-14
O=C(COC(=O)CCC(=O)c1ccc(F)cc1)Nc1cccc(S(=O)(=O)N2CCOCC2)c1	-11	0.3	1.1	-8%	-15	-13	2.6	-0.9	13	-14
O=C(O)Cn1nnnc1SCC(=O)Nc1ccc(F)cc1F	-3	0.8	-1.5	-4%	9	1	-4.2	0.6	6	2
CCc1ccc(C(=O)NNC(=O)c2c(CC)noc2C)cc1	3	5.6	-1.3	-4%	14	13	1.2	0.1	-5	-4
Cc1ccc2c(COC(=O)c3ccccc3Br)cc(=O)oc2c1	0	5.2	-2.3	nt	5	3	0.7	-0.2	-1	18
CCCn1c(COc2ccccc2)nc2ccccc21	nt	-0.9	-1.3	?	-35	-37	-7.4	-0.6	0	3
O=C(NNC(=O)c1cc2ccccc2cc1O)Nc1ccc(F)cc1F	0	-6.9	-5.2	nt	4	12	-2.1	0.9	?	-3
Cc1cccn2c(=O)c(/C=N/O)c(N3CCCCC3)nc12	-12	-0.7	nt	3%	nt	nt	nt	0.1	-10	25
O=C(NCc1ccccc1Cl)C1CCN(S(=O)(=O)N2CCOCC2)CC1	-5	-5.4	-0.8	4%	10	4	-0.1	-0.9	4	-7
COc1ccccc1Nc1nc(Cl)c(C=O)s1	-15	-2.2	-2.1	-10%	9	2	-4.3	-3.1	-4	-13
O=C(Nc1cccc2ncccc12)c1cc([N+](=O)[O-])ccc1Cl	nt	0.0	0.6	-3%	5	11	-1.5	-0.1	-8	-8
CCOC(=O)c1ccc(NC(=O)CNC(=O)C23CC4CC(CC(C4)C2)C3)cc1	nt	-3.0	1.0	10%	8	7	-1.8	-0.4	-11	10
Cc1ccc(N2C(=O)N(CC(=O)Nc3ccc(F)c(F)c3)C(=O)C2C)cc1 (stereo not given)	-4	-2.7	-6.4	-5%	-11	-42	6.0	-0.1	6	-11
CCC1CCc2sc(C(=O)NCC(c3ccccc3OC)N3CCCC3)cc2C1 (stereo not given)	0	nt	12	-4%	nt	nt	nt	1.4	nt	nt
CCN(C(=S)Nc1cccnc1)c1ccccc1	2	-2.0	-0.1	-10%	14	-5	-1.1	1.1	-3	-10
C=CCCN(Cc1ccccc1)S(=O)(=O)c1cc(Br)ccc1Br	3	nt	-4.0	nt	-5	-21	-4.5	-0.7	nt	nt
CN(Cc1ccccc1)C(=O)Cn1c(=O)oc2cc(S(=O)(=O)N3CCCC3)ccc21	-1	6.3	-1.4	-5%	3	1	0.3	0.0	2	-1
Cc1ccc2[nH]c(=O)c(CN(Cc3cccs3)C(=S)NCC3CCCO3)cc2c1 (stereo not given)	nt	4.8	nt	0%	nt	nt	nt	0.3	3	38
O=C(COc1ccc(Cl)cc1)Nc1ccc2oc(-c3ccncc3)nc2c1	-8	4.1	nt	-8%	nt	nt	nt	0.5	-5	-5
O=S(=O)(c1ccccc1)N1N=C(c2cccs2)CC1c1cccc(O)c1 (stereo not given)	-1	-1.8	-4.2	nt	3	-20	3.5	0.8	-1	-3
O=S(=O)(NC1=NCCCCCC1)c1cccs1	-6	6.5	?	-6%	9	3	5.4	-0.6	1	-12
O=c1c2cc(Br)cc(Br)c2oc2nc3n(c(=O)c12)CCCS3	-11	-3.4	nt	6%	nt	nt	nt	-1.5	-19	-7
NC(=S)N/N=C/C=C/c1ccccc1	3	0.6	5.9	-4%	nt	nt	nt	-2.2	1	37
COC(=O)Cc1ccc(NC(=O)c2ccc(Br)o2)cc1	0	0.4	nt	-3%	nt	nt	nt	-6.0	4	-7
CC1CC(C)CN(C(=O)c2ccc(S(=O)(=O)N3CCCC3)cc2)C1 (stereo not given)	-8	-0.9	-1.2	nt	1	-5	-0.4	0.5	-4	10

By substructure, those above containing fluorine
SMILES	Beta apoptosis	RanGTP-Imp inh	AF4-AF9 inh	Vif TR-FRET	Ecoli rRNA inh	Ecoli rRNA inh OD600	Ecoli rRNA inh RFP	Bfl-1 A1 inh	Calb FLC	T cruzi repl
CCN1CCN(c2ccc(S(=O)(=O)N3CCCCC3)cc2NC(=O)/C=C/c2ccc(F)cc2)CC1	2	nt	16	-11%	-2	-5	20	0.8	0	47
O=c1c2c(nc3cc(-c4ccc(F)cc4)[nH]n13)CCCC2	-6	2.2	nt	3%	nt	nt	nt	-4.3	-5	15
O=c1c2cn[nH]c2nc(SCc2c(F)cccc2F)n1-c1ccc(Cl)cc1	-1	0.3	-2.0	-9%	19	3	0.1	-0.5	?	41
Cc1cc(F)ccc1S(=O)(=O)N(C(=O)c1ccncc1)c1ccc(OC(=O)c2ccncc2)cc1	-9	-2.0	-2.2	4%	8	-5	5.1	-0.9	-7	-20
O=C(COC(=O)CCC(=O)c1ccc(F)cc1)Nc1cccc(S(=O)(=O)N2CCOCC2)c1	-11	0.3	1.1	-8%	-15	-13	2.6	-0.9	13	-14
O=C(O)Cn1nnnc1SCC(=O)Nc1ccc(F)cc1F	-3	0.8	-1.5	-4%	9	1	-4.2	0.6	6	2
O=C(NNC(=O)c1cc2ccccc2cc1O)Nc1ccc(F)cc1F	0	-6.9	-5.2	nt	4	12	-2.1	0.9	?	-3
Cc1ccc(N2C(=O)N(CC(=O)Nc3ccc(F)c(F)c3)C(=O)C2C)cc1 (stereo not given)	-4	-2.7	-6.4	-5%	-11	-42	6.0	-0.1	6	-11

2 compounds picked at random from the list so far, as already listed:
SMILES	Beta apoptosis	RanGTP-Imp inh	AF4-AF9 inh	Vif TR-FRET	Ecoli rRNA inh	Ecoli rRNA inh OD600	Ecoli rRNA inh RFP	Bfl-1 A1 inh	Calb FLC	T cruzi repl
O=S(=O)(NC1=NCCCCCC1)c1cccs1	-6	6.5	?	-6%	9	3	5.4	-0.6	1	-12
O=S(=O)(c1ccccc1)N1N=C(c2cccs2)CC1c1cccc(O)c1 (stereo not given)	-1	-1.8	-4.2	nt	3	-20	3.5	0.8	-1	-3
